fixLJ activator: activators of Burkholderia fixLJ two-component system, primary screen, B. multivorans, GFP reporter. B. multivorans fixK-promoter GFP reporter, 18 h; active compounds read high. z-score (concentration not given with the values). actives 0.3% (n = 29,000);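 active means replicate mean overnight rise in green fluorescent reporter signal, 3 or more SD over negative controls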;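 further: score is relative to vehicle wells of the plate; 300 nL library stock went into each well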
* = called active by the depositor. An excerpt; rates above refer to the full screens.

SMILES	fixLJ activator
CCS(=O)(=O)c1ncc(Cl)c(C(=O)Nc2c(C(=O)Nc3cccc(C)c3)oc3ccccc23)n1	-0.57
COc1ccccc1OCc1nc(CN2CCCCC2C)n(CC(C)(C)O)n1 (stereo not drawn)	-2.11
CC(C)c1nnsc1CN1CCC(c2nnc3n2CCCCC3)CC1	-0.32
Cc1ccc2c(c1)C(c1ccccc1)N(C(=O)c1ccc(S(=O)(=O)N3CCCC3)cc1)CC(=O)N2 (stereo not drawn)	-2.94
Cc1cc(C)c(NC(=O)Cn2nnc(S(=O)(=O)c3ccc(C)c(C)c3)c2N)c(C)c1	-0.48
COc1ccccc1CNC(=O)C1CCN(C(=O)c2sccc2-n2cccc2)CC1	0
Cc1ccc(-c2cc3c(n2-c2ccc(F)cc2)CC(C)(C)CC3=O)cc1	-0.07
Cc1ccc(C)c(NC(=O)C(C)N(c2ccccc2)S(C)(=O)=O)c1 (stereo not drawn)	-0.34
NCCC(=O)NC1c2ccccc2C2(CCNCC2)C1OCc1cccnc1 (stereo not drawn)	0.31
O=c1c2ccccc2nc(/C=C\c2cccc(Br)c2)n1-c1ccc(O)cc1	-0.31
Cc1ccc(Sc2ccc(N3CCCC(C(=O)Nc4ccc(F)cc4)C3)nn2)cc1 (stereo not drawn)	-0.32
COc1ccc(CCNC(=O)c2cc3sccc3n2Cc2ccc(Cl)cc2)cc1OC	0.83
Cn1c(=O)oc2cc(S(=O)(=O)Nc3ccccc3O)ccc21	0.7
COc1nc2c(cc1C(=O)NCCCn1ccnc1)CCC2	0.42
CC1=C(C(N)=O)C(c2ccc(C)cc2)n2nc(SCc3ccccc3F)nc2N1 (stereo not drawn)	0.12
Cc1cc(F)ccc1NC(=O)C1CCCN(C(=O)c2cnn(-c3ccccc3)c2-n2cccc2)C1 (stereo not drawn)	-1.51
CCOC(=O)c1cc(OC(=O)c2ccc(Cl)cc2)n(-c2ccccc2)n1	-0.89
O=c1n(Cc2ccc(Cl)cc2)nc2n1-c1ccccc1OC2	0.17
Cc1ccc(C)c(N2CCN(C(=O)C(CC(C)C)NS(=O)(=O)c3ccc4nc(C)sc4c3)CC2)c1 (stereo not drawn)	1.72
CCn1c(C2CCCN(Cc3cccnc3)C2)nn(C)c1=O (stereo not drawn)	-3.75
CCCC(=O)N(c1ccc2oc(-c3ccccc3)c(C(=O)OCC)c2c1)S(=O)(=O)c1ccc(C)cc1	-0.01
CNS(=O)(=O)c1cccc(NC(=O)NC(CC(C)C)c2cccnc2)c1 (stereo not drawn)	-0.61
Cc1ccc(OCC(O)Cn2c(=N)n(CCN3CCCCC3)c3ccccc32)cc1 (stereo not drawn)	-0.72
COc1ccc(NC(=O)C(C)N(c2ccccc2)S(C)(=O)=O)cc1 (stereo not drawn)	0.22
CCOC(=O)CC1CCCCN1C(=O)c1cnc(N2CCOCC2)nc1 (stereo not drawn)	1.1

In the list so far, these contain a thiophene ring, fused or not:
SMILES	fixLJ activator
COc1ccccc1CNC(=O)C1CCN(C(=O)c2sccc2-n2cccc2)CC1	0
COc1ccc(CCNC(=O)c2cc3sccc3n2Cc2ccc(Cl)cc2)cc1OC	0.83

Five entries picked at random from the list so far, as already listed:
SMILES	fixLJ activator
Cc1ccc(Sc2ccc(N3CCCC(C(=O)Nc4ccc(F)cc4)C3)nn2)cc1 (stereo not drawn)	-0.32
COc1ccccc1CNC(=O)C1CCN(C(=O)c2sccc2-n2cccc2)CC1	0
Cc1ccc(-c2cc3c(n2-c2ccc(F)cc2)CC(C)(C)CC3=O)cc1	-0.07
Cc1ccc(C)c(N2CCN(C(=O)C(CC(C)C)NS(=O)(=O)c3ccc4nc(C)sc4c3)CC2)c1 (stereo not drawn)	1.72
CCOC(=O)CC1CCCCN1C(=O)c1cnc(N2CCOCC2)nc1 (stereo not drawn)	1.1

Further records follow.
SMILES	fixLJ activator
O=C(NCCSc1ncn[nH]1)c1ccc(CSc2ccccn2)cc1	-0.22
Cc1cc2c(cc1C)C(c1cccc(OC(C)C)c1)CC(=O)N2 (stereo not drawn)	0.56
O=C(O)c1cc2c(s1)C1(CCN(C(=O)C3CCOCC3)CC1)OCC2	-0.16
CCc1ccc(-c2nc(CN3CCC(C(=O)NCCc4ccc(C)cc4)CC3)c(C)o2)cc1	-0.28
CN(CC1Cc2ccccc2CN1C)C(=O)c1cccc(-n2cnnc2)c1 (stereo not drawn)	-1.95
Cc1ccc(-n2c3c(cc(C(=O)Nc4ccccc4C(N)=O)c2=O)C(=O)CC(C)(C)C3)cc1	-0.68
CC(C)c1noc(CN2CCC3(CCC(=O)N(C4CCCC4)C3)CC2)n1	-1.69
CCc1ccc(-c2nc(SCC(=O)NCCOC)c(-c3ccc(C)cc3)[nH]2)cc1	-2
CCNS(=O)(=O)c1cc(-c2nnc(Nc3cccc(C(F)(F)F)c3)c3ccccc23)ccc1C	0.22
CN(Cc1noc(C2CC2)n1)C(=O)NC1CCCN(Cc2ccccc2F)C1 (stereo not drawn)	-1.28
O=C(CCc1ccc(-c2ccccc2)cc1)N1CC2CC(O)C(O)CC2C1 (stereo not drawn)	-0.48
COc1ccc(NC(=O)CC2C(=O)N(c3ccc(OC)cc3)C(=O)N2Cc2ccc(OC)c(OC)c2)cc1 (stereo not drawn)	-0.01
COCCN(Cc1ccncc1)C(=O)c1cnn2c(C(F)(F)F)cc(C)nc12	-0.11
Cc1cc(CC2CN(C(=O)CCCc3cn[nH]c3)CC2O)n[nH]1 (stereo not drawn)	-1.07
CCOc1ccc(S(=O)(=O)c2cn(Cc3cc(C)ccc3C)c3ccc(OCC)cc3c2=O)cc1	0.33
COC1CCN(C(=O)Nc2cccc(C(=O)N3CCCCCC3)c2)CC1	0.89
Cc1cccnc1NCCNc1nc(C(C)C)nc2c1cnn2C	1.62
Cc1cccc(Nc2nnc(-c3ccc(C)c(S(=O)(=O)NCC4CCCO4)c3)c3ccccc23)c1 (stereo not drawn)	0.1
COCCn1c(=O)[nH]c2cc(C(=O)NCc3ccccc3Cl)ccc2c1=O	1.4
CC1CCc2c(sc(NC(=O)C3c4ccccc4Oc4ccccc43)c2C(=O)OC(C)C)C1 (stereo not drawn)	-1.47
Cn1c(=O)c2c(-c3ccccc3)n3c4ccccc4nc(-c4ccccc4)c3c2n(C)c1=O	0.42
CCOC(=O)c1cnc2cc(C(F)(F)F)ccc2c1N1CCN(c2cccc(Cl)c2)CC1	1.21
Cc1cc(C(=O)N2C[C@]3(C)CC2CC(C)(C)C3)cc(S(N)(=O)=O)c1C	1.08
CCCOC(=O)c1c(NC(=O)c2nc3ncccn3n2)sc(C(=O)OCC)c1C	0.6
CCc1cccc(OCC(=O)Nc2ccc(S(=O)(=O)Nc3cc(C)nc(C)n3)cc2)c1	-2.25

Individual results from the results shown:
`O=C(NCCSc1ncn[nH]1)c1ccc(CSc2ccccn2)cc1` in fixLJ activator: -0.22
`Cc1cccnc1NCCNc1nc(C(C)C)nc2c1cnn2C` in fixLJ activator: 1.62
`CCc1ccc(-c2nc(SCC(=O)NCCOC)c(-c3ccc(C)cc3)[nH]2)cc1` in fixLJ activator: -2
`CC1CCc2c(sc(NC(=O)C3c4ccccc4Oc4ccccc43)c2C(=O)OC(C)C)C1` (stereo not drawn) in fixLJ activator: -1.47
`O=C(O)c1cc2c(s1)C1(CCN(C(=O)C3CCOCC3)CC1)OCC2` in fixLJ activator: -0.16
`Cc1cc(C(=O)N2C[C@]3(C)CC2CC(C)(C)C3)cc(S(N)(=O)=O)c1C` in fixLJ activator: 1.08
`Cc1cc2c(cc1C)C(c1cccc(OC(C)C)c1)CC(=O)N2` (stereo not drawn) in fixLJ activator: 0.56

In the list so far, these contain a furan ring, fused or not:
SMILES	fixLJ activator
CCS(=O)(=O)c1ncc(Cl)c(C(=O)Nc2c(C(=O)Nc3cccc(C)c3)oc3ccccc23)n1	-0.57
CCCC(=O)N(c1ccc2oc(-c3ccccc3)c(C(=O)OCC)c2c1)S(=O)(=O)c1ccc(C)cc1	-0.01

Other results:
SMILES	fixLJ activator
CCn1c(C)c(C2N3CC4(C)CN2CC(C)(C3)C4=O)c2ccccc21 (stereo not drawn)	-1.85
COc1ccccc1Cn1cc(C(=O)c2ccc(Cl)cc2)c(=O)c2ccccc21	0.1
CCc1nc(CN2CCN(c3ncccn3)C3CS(=O)(=O)CC32)cs1 (stereo not drawn)	-0.07
COC1CN(C(=O)c2ccc(=O)[nH]c2)CC1Cc1cc(C)no1 (stereo not drawn)	0.68
Cc1ccc(-n2c3c(c(=O)[nH]c2=O)C(NS(=O)(=O)c2ccc(Cl)cc2)(C(F)(F)F)C(=O)N3)cc1 (stereo not drawn)	-2.68
Cc1nn2c3c(cnc2c1-c1ccc(Cl)cc1)C(=O)CC(c1ccc(C(C)C)cc1)C3 (stereo not drawn)	-0.32
Cc1cccc(C(=O)Nc2cc3c(cc2N2CCOCC2)n(C)c(=O)n3C)c1	-0.04
COc1cccc(Cn2c(C)c(CNC3CCCCC3)c(C(=O)O)c2C)c1	-0.08
Cn1ccnc1C(=O)C1CCCN(Cc2cnc(-c3ccccc3)s2)C1 (stereo not drawn)	0.16
Cc1cnccc1CN(C)C(=O)NCCCn1ccnc1C(C)C	1.5
O=C1OC(C(=O)Nc2cccc(Br)c2)Cc2ccccc21 (stereo not drawn)	-2.63
CC1CCN(S(=O)(=O)c2ccc3c(c2)CCN3C(=O)Nc2ccccc2Br)CC1	0.11
Cc1cccc(C(=O)Nc2sc3c(c2C(=O)NCc2ccco2)CCCC3)c1	0.48
NS(=O)(=O)c1cc(C2(O)NC(=O)c3ccccc32)ccc1Cl (stereo not drawn)	-1.06
CCc1nn(CC(=O)NCCCOC)c(=O)c2cc3occc3n12	1.17
Cc1ccc(C(=O)NC2(C(F)(F)F)N=C(c3ccccc3)N(Cc3ccccc3)C2=O)cc1 (stereo not drawn)	-1.84
CCOc1ccc(C(=O)N(CCO)Cc2cncn2C)cc1OCC	0.48
CCNc1c(NC(=O)c2cc(OCC)c(OCC)c(OCC)c2)c(=O)oc2ccccc12	-1
CC(CCc1ccccc1)NC(=O)Cn1ncc2c3ccccc3n(Cc3cccc(Cl)c3)c2c1=O (stereo not drawn)	25.8*
COc1ccc2[nH]c(CNC(=O)CCc3ccc(F)cc3F)cc2c1	-3.76
Cc1ccc(OC2CN(S(=O)(=O)c3cc(C(=O)O)ccc3F)C2)cc1	0.1
CCc1cc(C(=O)Nc2c(C)nn(Cc3ccccc3Cl)c2C)no1	-2.16
Cc1cccc(C)c1OCc1nc2c3c(-c4ccccc4)c(-c4ccccc4)oc3ncn2n1	0.4
CCOc1ccc(N(Cc2ccccc2)C(=O)c2nc(S(C)(=O)=O)ncc2Cl)cc1	-0.67
COc1ccc(-c2n[nH]c3c2C(c2ccc(Cl)cc2Cl)NC3=O)cc1 (stereo not drawn)	-2.03
The listing continues.
SMILES	fixLJ activator
O=C(NCc1cc2n(n1)CCCN(Cc1ccc(F)cc1Cl)C2)C1CCC1	-1.76
COCC(C)(C)C(=O)NC1COCC1Cc1ccnc2ccccc12 (stereo not drawn)	0.6
C[C@]12CCC3c4ccc(OS(=O)(=O)O)cc4CCC3C1CCC2=O (stereo partly drawn)	-0.35
Cc1cccc(N(CC(=O)Nc2ccccc2C(F)(F)F)S(=O)(=O)c2ccccc2)c1C	0.35
Cc1cc(C)n(CCCNC(=O)c2ccccc2N2CCC(=O)NC2=O)n1	-0.37
O=C(c1ccc2c(c1)OCO2)c1cn(Cc2ccc(Cl)cc2)c2ccc(F)cc2c1=O	-0.8
COc1ccc(CCNC(=O)Cn2ncc3c(=O)oc4ccccc4c32)c(OC)c1	-0.4
COc1ccc(-c2nnc(C)o2)cc1NC(=O)C1CC(=O)N(CC(C)C)C1 (stereo not drawn)	1.71
Cc1cc(C)cc(NC(=O)C2CCCN(c3cnccn3)C2)c1 (stereo not drawn)	-0.88
Cc1cccc(Cc2c(C)nc3nc(SCc4ccccc4Cl)nn3c2C)c1	-1.76
COc1cccc(Cn2c(SCc3ccc(C(=O)N4CCCCC4)cc3)nc3ccncc32)c1	-4.02
Cc1ccc(Cl)cc1N1CCN(S(=O)(=O)c2cc(Br)cc3c2N(C(=O)C2CC2)CC3)CC1	-0.02
CCOc1ccc(-n2c(=O)c3c4c(sc3n(Cc3cccc(C)c3)c2=O)CCCC4)cc1	-0.15
COc1ccc(C(=O)Nc2nonc2-c2ccc(OC)c(OC)c2)cc1Cl	-0.44
CCOc1ccc(OCC)c(NC(=O)CCc2nc3cccnc3n2-c2ccccc2)c1	-0.53
COc1ccc(S(=O)(=O)N2CCN(c3ccc(Cl)c(Cl)c3)CC2)c2ccccc12	0.64
NC1CCN(Cc2cnc(NCc3ccccc3)nc2)CC1O (stereo not drawn)	0.32
COc1cccc(Cn2nnc3c(=O)[nH]c(C4CCCN(C(=O)c5ccccc5Cl)C4)nc32)c1 (stereo not drawn)	-1.2
COc1ccc(-c2cc(NCc3ccc(C)cc3)n3cnnc3n2)cc1	-2.23
Cc1cccc2c1-c1sc(C(=O)N3CCN(c4ccc(F)cc4)CC3)cc1CO2	0.34
COc1ncccc1C(=O)N1CC(O)C(Cc2cc(C)[nH]n2)C1 (stereo not drawn)	-0.85
CCCCN(C)CC(O)Cn1cc(/C=C/C(=O)c2ccc(Br)cc2)c2ccccc21 (stereo not drawn)	-14.9
COCCN1CC(Cc2ccc(-c3nnc(C)o3)cc2)CC1=O (stereo not drawn)	0
Brc1ccccc1-n1ncc2c1ncn1nc(Cc3ccccc3)nc21	-1.46
C=CCC(CC=C)(CNC(=O)C(=O)Nc1ccc(C(=O)OCC)cc1)c1ccccc1	0.48
The list continues:
SMILES	fixLJ activator
Cc1ccc(C)c(NC(=O)C(=O)NCCCN2CCOCC2)c1	-1.26
CCCOc1ccc(-c2nn(-c3ccccc3)cc2C2NC(=O)NC(C)=C2C(=O)OC)cc1C (stereo not drawn)	-1.25
Cc1[nH]c2c(F)cccc2c1CC(=O)Nc1ccc2nc(C(C)O)[nH]c2c1 (stereo not drawn)	-2.66
Cc1ccc(S(=O)(=O)c2nc(-c3cccc(C)c3)oc2N2CCCCC2)cc1	-1.73
CCC(=O)N1CCc2cc(Br)cc(S(=O)(=O)CCC(=O)NCCc3ccc(OC)c(OC)c3)c21	2.58
CCc1ccc(CNC(=O)c2cc3n(n2)CCCN(Cc2ccccc2)C3=O)cc1	1.24
COc1ccc(C(=O)c2sc3nc(-c4ccc(F)cc4)ccc3c2N)cc1	-0.4
COCCNC(=O)CSc1nc(-c2ccccc2)[nH]c1-c1ccc(OC)cc1	-0.12
COc1ccc(OCc2nc3ccccc3n2C(C)c2ccccc2)cc1 (stereo not drawn)	0.84
